ClpP mod: qHTS Assay for Activators of ClpP. ATP-dependent Clp protease proteolytic subunit (Bacillus subtilis (strain 168)), P80244. purified B. subtilis ClpP, FRET peptide cleavage, 20 min. Potency, µM (titrated, usually from 57.5 µM), for the others: at the highest dose activity change, negative = active. 340,000 tested, 1.9% active; active = well fitted falling curve with a large enough effect; inconclusive = small, poorly fitted or top-dose-only effect; inactive = no such curve, though single readings can be large or run the other way; note: potency is the fitted concentration of half-maximal effect; the source files actives as falling curves though it sought activators and does not explain the sign; nearly all actives have a fitted effect of over 65% in size; many hits overshoot -100%
Target sequence (P80244 whole entry, looked up): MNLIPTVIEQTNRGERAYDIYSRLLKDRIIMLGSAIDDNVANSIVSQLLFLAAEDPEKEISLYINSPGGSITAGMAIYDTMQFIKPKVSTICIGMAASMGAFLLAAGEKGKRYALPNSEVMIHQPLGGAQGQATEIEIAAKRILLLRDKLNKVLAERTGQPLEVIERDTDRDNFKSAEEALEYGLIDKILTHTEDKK
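Purified B. subtilis ClpP, 10 microg/mL final in Tris/HCl pH8 with KCl, BSA, glycerol and Tween-20, cleaved an Abz/nitrotyrosine-quenched decapeptide. Fluorescence (ex 320, em 430) was read at 0 and 20 min at room temperature. Delta was normalized to 5.8 microM ADEP and DMSO/no-enzyme controls.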
Menin MLL FP FL: displaces fluorescein MLL peptide from human menin; Fluorescence polarization, fluorescein-MLL peptide displacement from menin; FP activity change, % at 61.4 µM; 290,000 tested, under 10 active; AID 1766; inconclusive = falling polarisation curve, or a change in total fluorescence; inactive = total fluorescence flat and polarisation flat or rising; no compound was filed as active; the % refers to the polarisation; negative = inhibition;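 note: % of control where 0% means no effect; inhibitors lower the polarisation; unlabelled MLL peptide was the positive control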
Sfp PPTase inh: Sfp phosphopantetheinyl transferase inhibition; Q9F4F7; Biochemical Sfp PPTase activity, qHTS; Potency, µM, for the others: max response, negative = inhibition, most hits filed as inhibitors; 310,000 tested, 3.5% active; AID 1490; active = well fitted inhibition curve with a large enough effect; inconclusive = small, poorly fitted or top-dose-only effect, or another doubt; inactive = no such curve, though single readings can be large or run the other way;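 note: the enzyme is Sfp with the accession as filed and its product quenches rhodamine fluorescence; potency is the fitted concentration of half-maximal effect; 0% = enzyme reaction without inhibitor and -100% = no enzyme wells; top concentration of the series not given in the record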
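Compounds were incubated with enzyme (final 15 nM) for 15 min at room temperature before substrate addition started the reaction. Fluorescence at 525 nm excitation, 598 nm emission was recorded immediately and after 30 minutes.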
gsp antagonist: antagonizes gsp, the McCune-Albright syndrome mutation; AID 624288; Potency, µM (series often up to 76.9 µM), for the others: top-dose activity change, negative = inhibition, actives largely listed as inhibitors; 340,000 tested, 0.4% active; gsp-mutant cells, cAMP HTRF, 30 min; control for the full effect not named in the record; active = falling curve of any shape with a large fitted effect; inconclusive = falling curve, mostly with a smaller effect; inactive = flat or rising curve; cell line not stated here;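 note: intracellular cAMP measured with PDE inhibitor Ro 20-1724 present during compound exposure; potency is the fitted concentration of half-maximal effect; % is set by controls: 0 for no effect and ±100 for the full control effect; nearly all actives have a fitted effect of over 65% in size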
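G418-selected cells were plated in DMEM/10% FBS for 16-24 h at 37C, then treated with compounds plus the PDE inhibitor […] (300 uM solution added) for 30 min at 37C. Intracellular cAMP was measured by HTRF after 30 min lysis at room temperature.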
TRPV1 PAM: enhances activation of the human vanilloid receptor TRPV1; TRPV1-expressing cells, Fluo-8 calcium influx, capsaicin EC20 potentiation; host cell line not named in the record; control for the full effect not named in the record; potentiation, % at 8.33 µM; 320,000 tested, 0.02% active; active means potentiation above 80%; inconclusive means 30% to 80%; inactive means below 30%; note: 0% is about no effect
Target sequence (Q8NER1 whole entry, looked up): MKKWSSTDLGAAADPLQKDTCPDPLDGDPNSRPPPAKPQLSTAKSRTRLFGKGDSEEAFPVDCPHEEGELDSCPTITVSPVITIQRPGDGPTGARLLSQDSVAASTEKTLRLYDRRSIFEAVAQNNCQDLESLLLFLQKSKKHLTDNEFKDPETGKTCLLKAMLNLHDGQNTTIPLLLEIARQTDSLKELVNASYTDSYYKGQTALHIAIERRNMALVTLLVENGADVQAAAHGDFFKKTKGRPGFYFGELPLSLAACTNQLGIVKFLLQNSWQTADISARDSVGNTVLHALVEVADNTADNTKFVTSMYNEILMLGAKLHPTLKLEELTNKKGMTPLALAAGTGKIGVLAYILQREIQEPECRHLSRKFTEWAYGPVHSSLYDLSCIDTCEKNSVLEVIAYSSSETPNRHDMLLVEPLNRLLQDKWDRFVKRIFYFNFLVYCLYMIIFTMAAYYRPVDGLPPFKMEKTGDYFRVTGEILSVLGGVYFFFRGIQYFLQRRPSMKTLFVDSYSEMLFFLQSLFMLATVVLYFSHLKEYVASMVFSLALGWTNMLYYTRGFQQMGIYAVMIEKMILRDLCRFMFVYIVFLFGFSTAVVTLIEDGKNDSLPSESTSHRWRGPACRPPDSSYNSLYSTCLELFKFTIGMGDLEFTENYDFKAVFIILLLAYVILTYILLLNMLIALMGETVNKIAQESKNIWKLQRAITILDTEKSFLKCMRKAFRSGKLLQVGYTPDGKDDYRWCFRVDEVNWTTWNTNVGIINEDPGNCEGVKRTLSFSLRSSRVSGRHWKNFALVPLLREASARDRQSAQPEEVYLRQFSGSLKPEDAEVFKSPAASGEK
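Fluo-8 calcium influx in TRPV1-expressing cells, kinetic read (ex 480/em 520 nm). Compound added and read 3 min for agonist activity, followed by capsaicin at EC20 final and 2 min further read for enhancement.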
gsp ag: activates gsp, the McCune-Albright syndrome mutation | AID 624287 | Potency, µM (highest dose often 76.9 µM), for inactives: at the top dose activation (cAMP increase), usual class: activators | gsp mutant cells, cAMP HTRF, 30 min; control for the full effect not named in the record | 340,000 tested, 0.13% active; active = well fitted activation curve with a large enough effect; inconclusive = small, poorly fitted or top-dose-only effect, or another doubt; inactive = no such curve, though single readings can be large or run the other way; cell line not stated here;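 note: phosphodiesterase inhibitor Ro 20-1724 added with compounds to block cAMP breakdown; potency is the fitted concentration of half-maximal effect; nearly all actives have a fitted effect of over 60% in size; about a fifth of the inactives were tested at one dose only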
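Cells stably selected in G418 were plated at 2000/well, grown 16-24 hr, then given compounds in DMSO with the PDE inhibitor […] (300 uM solution added) for 30 min at 37C; cAMP was read by HTRF.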
CtBP-E1A inh: blocks the CtBP interaction with E1A | AlphaScreen GST-E1A/His-CtBP binding, 1536-well; hits give low values; control for the full effect not named in the record | 340,000 tested, 0.49% active | activity change, % (no concentration beside the values); in the data active means activity change below about -65%; inconclusive means about -30% to -65%; inactive means above about -30%; note: % is set by controls: 0 for no effect and ±100 for the full control effect; compound concentration not given in the record
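Protein mix (5X: 125 nM each GST-E1A, His-CtBP) was incubated with pinned compound 2 h at 37 deg C in dark, in 50 mM Tris pH 8.0 buffer with 300 mM NaCl. Glutathione donor and nickel acceptor beads followed; AlphaScreen signal read after 1 h.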
Numbers without * were called inactive; ? = inconclusive; · = no result given; & = joins results of further samples; [ ] = another dose, or the depositor's remark. Hits appear at their usual frequency. About 5.3% of those tested had a hit in this group.

Compound	ClpP mod	Menin MLL FP FL	Sfp PPTase inh	gsp antagonist	TRPV1 PAM	gsp ag	CtBP-E1A inh
CC(C)(C)n1nnnc1CN1CCN(C(c2ccccc2)c2ccccc2)CC1	-0.9%	1.9	20.2%	?	-2.1	-3.3%	-4.6
O=C1NC(=O)C(c2ccccc2)(c2ccc(O)cc2)N1 (stereo not given)	1.0%	·	·	5.4%	5.7	-2.9%	-1.1
O=C(Nc1ccc(Cl)cc1)Nc1nnc(CSCc2ccc(Cl)cc2)s1	0.0%	-0.2	18.4%	2.9%	-1.9	16.5%	-1.9
Cc1nc(NCCN2CCOCC2)c2oc3ccccc3c2n1	-2.8%	1.0	4.6%	-13.9%	-3.3	20.7%	1.1
O=C(CSc1nnc(-c2cccnc2)s1)Nc1ccnc2ccccc12	-2.7%	2.4	4.2%	-30.6%	9.3	-10.6%	-0.7
Cc1cccc(OCCc2nnc(N)s2)c1C	-7.4%	-0.2	0.2%	-0.1%	-2.8	1.2%	-2.0
COc1cc(/C=N/NC(=O)CNC(=O)c2ccco2)ccc1O	·	0.8	13.5%	13.1%	6.2	-12.5%[15.4 µM]	13.7
Cc1ccc(-n2nc3cc(Cl)c(NC(=O)c4ccco4)cc3n2)cc1	?	5.7	11.3%	-2.2%	3.2	7.5%	4.8
Cc1nc2ccc(S(=O)(=O)N3CCCCC3)cc2s1	·	2.8	19.8%	7.2%	-6.0	-30.8%[inhibitor]	-11.6
Cc1ccc(NC(=O)CN2C(=O)NC3(CCCCC3)C2=O)cc1S(=O)(=O)N1CCOCC1	-7.5%	·	·	5.6%	·	-23.8%	-3.8
O=C(N/N=C/c1cccs1)c1cccc(NC(=O)c2ccccc2Cl)c1	·	2.3	7.8%	-18.4%	8.1	-3.3%[15.4 µM]	-13.3
CC(OC(=O)c1ccc(CN2CCCC2=O)cc1)C(=O)Nc1ccc(Cl)cc1 (stereo not given)	-4.7%	·	·	10.2%	-0.5	-15.8%	-5.5
C/C(=N/NC(=O)c1ccccn1)c1ccncc1	-1.3%	6.0	56.2µM*	-3.3%	17.2	16.9%[15.4 µM]	-29.1
CCC(C)NC(=O)CN(c1ccc(OC)cc1)S(=O)(=O)c1ccccc1 (stereo not given)	·	1.5	21.4%	12.2%	-2.7	-13.3%[15.4 µM]	1.6
C/C(=N\NC(=O)c1ccccc1Br)c1ccc(N2CCOCC2)cc1	-2.9%	-2.7	11.1%	4.4%	6.5	-0.4%	3.6
Nc1nc2cc(Br)ccc2o1	-1.8%	·	·	-8.4%	·	-13.0%	-0.9
COc1ccc2oc(C(=O)OCC(=O)N(CC(C)C)c3c(N)n(Cc4ccccc4)c(=O)[nH]c3=O)c(C)c2c1	18.9%	·	·	-21.6%	0.4	-57.3%[inhibitor]	30.4
S=C(Nc1ccccc1)N1CCCN1c1ccccc1	-4.1%	-0.6	12.3%	-6.5%	6.6	6.3%	·
O=C1/C(=C/c2ccco2)CCC1C1CCCC1 (stereo not given)	·	11.5	-1.0%	10.7%	-7.2	-1.6%	5.4
O=C(/C=C/c1ccccc1)CC(O)(c1ccccc1)C(F)(F)C(F)F (stereo not given)	-1.1%	0.9	-0.2%	4.1%	7.5	?	2.3
Cc1noc(C)c1S(=O)(=O)N(C)C[C@@H]1OCc2cn(nn2)CCCC(=O)N([C@@H](C)CO)C[C@H]1C	-1.2%	·	·	·	·	10.4%	2.0
COc1cc2cc(C(=O)N3CCC(Cc4ccccc4)CC3)[nH]c2cc1OC	?	-1.1	10.9%	5.7%	0.0	0.9%	·
Cc1ccc(C(=O)NC(=S)c2c(C)cc3ccccn23)cc1	10.5%	·	·	·	·	-20.7%	-21.5
O=C1c2cccc3cccc(c23)C(=O)N1OS(=O)(=O)c1ccc(Cl)cc1	·	0.0	11.1%	2.7%	0.9	23.3%[15.4 µM]	1.3
Cc1sc2nc(COC(=O)c3c(F)cccc3F)[nH]c(=O)c2c1C	·	1.0	20.1%	·	-2.9	1.2%[15.4 µM]	-17.7
Cc1noc(C)c1C(=O)Nc1ccccc1N1CCCC1	1.0%	·	·	5.1%	-0.2	-22.6%	0.3
NS(=O)(=O)c1cc2c(cc1Cl)NC(C(Cl)Cl)NS2(=O)=O (stereo not given)	1.8%	3.3&0.8	15.6%&0.1%	7.2%	3.7	·	7.5
CC(C)CN(C(=O)CSc1nnc2c(Cl)cc(C(F)(F)F)cn12)C1CCS(=O)(=O)C1 (stereo not given)	?	0.4	2.4%	3.9%	-5.2	9.8%	-2.7
Nc1nnc(CSCc2ccccc2)s1	3.0%	3.9	22.0%	-2.6%	4.8	-11.6%	4.8
Cc1nc2ccccc2n1Cc1n[nH]c(=S)n1-c1ccc(Cl)cc1	·	0.3	1.2%	2.8%	4.9	-27.4%	-13.0

Given with two lines to a compound: 9 of the compounds above.
Every second line gives: ClpP mod	Menin MLL FP FL	Sfp PPTase inh	gsp antagonist	TRPV1 PAM	gsp ag	CtBP-E1A inh
- CC(C)(C)n1nnnc1CN1CCN(C(c2ccccc2)c2ccccc2)CC1
  -0.9%	1.9	20.2%	?	-2.1	-3.3%	-4.6
- O=C1NC(=O)C(c2ccccc2)(c2ccc(O)cc2)N1 (stereo not given)
  1.0%	·	·	5.4%	5.7	-2.9%	-1.1
- O=C(Nc1ccc(Cl)cc1)Nc1nnc(CSCc2ccc(Cl)cc2)s1
  0.0%	-0.2	18.4%	2.9%	-1.9	16.5%	-1.9
- Cc1nc(NCCN2CCOCC2)c2oc3ccccc3c2n1
  -2.8%	1.0	4.6%	-13.9%	-3.3	20.7%	1.1
- O=C(CSc1nnc(-c2cccnc2)s1)Nc1ccnc2ccccc12
  -2.7%	2.4	4.2%	-30.6%	9.3	-10.6%	-0.7
- Cc1cccc(OCCc2nnc(N)s2)c1C
  -7.4%	-0.2	0.2%	-0.1%	-2.8	1.2%	-2.0
- COc1cc(/C=N/NC(=O)CNC(=O)c2ccco2)ccc1O
  ·	0.8	13.5%	13.1%	6.2	-12.5%[15.4 µM]	13.7
- Cc1ccc(-n2nc3cc(Cl)c(NC(=O)c4ccco4)cc3n2)cc1
  ?	5.7	11.3%	-2.2%	3.2	7.5%	4.8
- Cc1nc2ccc(S(=O)(=O)N3CCCCC3)cc2s1
  ·	2.8	19.8%	7.2%	-6.0	-30.8%[inhibitor]	-11.6

Additional compounds follow.
Compound	ClpP mod	Menin MLL FP FL	Sfp PPTase inh	gsp antagonist	TRPV1 PAM	gsp ag	CtBP-E1A inh
COc1ccc(CCNC(=O)CSc2nc3scc(-c4ccccc4)c3c(=O)[nH]2)cc1	2.3%	·	·	?	·	16.8%[15.4 µM]	-0.5
Cc1ccc(C)c(-n2sc3ccc(F)cc3c2=O)c1	1.2%	·	·	-20.2%	-16.1	-13.9%	-15.6
COc1ccc(NC(=O)COC(=O)c2ccncc2)c(OC)c1	·	-2.1	16.3%	5.5%	-3.7	-37.1%[inhibitor]	-2.6
COc1ccccc1CNS(=O)(=O)c1c(C)cc(C)cc1C	-0.1%	·	·	·	·	-27.4%	1.7
O=S(=O)(O)c1nnc2sc3ccccc3n12	-0.7%	1.1	-0.3%	11.7%	-0.1	22.6%	-2.9
Clc1ccc(CN(Cc2ccc(Cl)cc2)c2nn[nH]n2)cc1	0.9%	-0.3	8.0%	?	17.6	-1.4%	2.6
COc1ccc(C(=O)Nc2nc3ccccc3[nH]2)cc1S(=O)(=O)N1CCOCC1	-4.8%	-3.3	21.3%	-8.3%	-7.1	-2.9%	?
Cc1cc(C(=O)Nc2ccccc2C#N)n(-c2ccccc2)n1	-0.5%	-3.2	6.6%	-3.6%	6.2	-36.6%[inhibitor]	1.8
C=CCOc1ccc(/C=C/C(C)=N\O)cc1	0.5%	-1.1	-1.7%	-14.3%	-11.8	-15.0%	3.4
O=C(NCCc1ccc(Cl)cc1)C1CCCN(c2ncnc3c2nc2n3CCCCC2)C1 (stereo not given)	1.6%	0.4	7.1%	-31.1%	-9.7	2.2%	45.0
O=C(CSCc1c(Cl)cccc1Cl)NCc1cccnc1	-1.6%	8.5	8.0%	1.2%	-8.0	-15.9%	-3.0
Cc1nc2cc3c(=O)n(C)cnc3cc2n1Cc1ccccc1	?	·	·	·	·	25.4%	0.0
Cc1ccc(NC2=CC(=O)C(=O)c3ccccc32)cc1	-0.6%	6.9	-18.7%	-13.8%	2.1	4.2%	?
CCOC(=O)C1C(=O)N(C(=O)c2cncc(Br)c2)CC1c1ccccc1 (stereo not given)	-1.2%	1.3	-3.0%	-15.0%	-29.2	-54.0%[inhibitor]	9.0
O=C(NCCS(=O)(=O)N1CCN(c2ccc(F)cc2)CC1)C1CC(=O)N(c2ccccc2)C1 (stereo not given)	-1.2%&-2.7%	1.5	16.1%	10.3%	-3.0	-9.0%	3.6
Cc1ccc(C(=O)Nc2ccc(SC(F)F)cc2)s1	·	0.9	-13.6%	·	-13.3	1.0%[15.4 µM]	22.4
S=C(c1ccc2c(c1)OCO2)N1CCCCC1	-0.4%	4.6	-7.2%	5.5%	-1.9	?	0.5
CCNC(=S)NNc1nc(N2CCOCC2)nc(N2CCOCC2)n1	·	2.4	14.1µM*	5.1%	0.9	-43.2%	?
COc1ccc(C(=O)NCc2nnc(SCC(=O)N3CCC(C)CC3)o2)cc1OC	-4.8%	-3.1	5.5%	14.5%	5.2	-57.1%[inhibitor]	1.1
Cc1cc(C)c2c(c1)NC(=O)C2(O)CC(=O)c1cccs1 (stereo not given)	0.3%	?	2.2%	-2.1%	-2.3	-4.9%	5.0
CCN1CCCC1CNC(=O)c1cn(CC)c2ccc(S(=O)(=O)N3CCCCCC3)cc2c1=O (stereo not given)	·	4.0	2.1%	·	14.2	·	·
